Screens deposited in PubChem BioAssay by several laboratories.
UCH37 inh: inhibitors of human deubiquitinating enzyme UCH37; Q9Y5K5; purified proteasome/UCH37, Ub-AMC cleavage fluorescence; inhibition, % (no concentration beside the values); 0.33% of 330,000 active; AID 588478;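 active means mean of two replicates above 20%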;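 further: 0% = compound-free wells with enzyme and 100% = wells lacking proteasome; stock transfer was 100 nL into about 20 µL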
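Material: Human UCH37 enzyme supplied as purified proteasome complex | Schedule: 30 min compound-proteasome preincubation then 25 min substrate reaction, room temperature | Detection: AMC fluorescence from Ub-AMC cleavage, excitation 355 nm, emission 460 nm | Benchmarks: Wells without proteasome as full block, compound-free enzyme plus substrate as uninhibited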
RanGTP-Imp inh: disruptors of Ran-importin-beta complex formation – biochemical, FRET, CFP-Ran, YFP-importin-beta, homogeneous, primary screen. inhibition, % (concentration not given with the values). cell-free CFP-Ran/YFP-importin-beta FRET ratio. 1.1% of 300,000 active;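 active means most replicates above 15%; inconclusive means exactly half above 15%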;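 further: 0% = DMSO wells and 100% = Ran loaded with GDP instead of GTP; wells of about 40 µL received 100 nL stock; the first replicate is given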
T cruzi inh: blocks replication of Trypanosoma cruzi | inhibition, % (no concentration beside the values) | AID 1885 | 1.4% of 300,000 active | T. cruzi beta-gal in NIH3T3, luminescence, 90 h;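 active means mean inhibition across valid replicates above about 55%, limit read from the data; inconclusive means mean below that limit but half or more replicates reach it; inactive means mean below it, under half of replicates reach it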;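 further: signal also drops with host cell toxicity which is not excluded here; 0% = plate median of DMSO wells and 100% = zero luminescence signal; higher percent means less beta-gal luminescence so fewer parasites; stock transfer was 50 nL into about 50 µL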
LANA-H2A inh: blocks KSHV LANA binding to histone H2A/H2B. Q9QR71. cell-free LANA-H2A/H2B peptide, fluorescence polarization. inhibition, % (test concentration not listed). 0.6% of 320,000 active. AID 2629; in the data active means inhibition mostly above about 10%, no sharp cut-off; inactive means mostly below about 6.7%;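 further: stock transfer was 7.5 nL into about 10 µL; 0% = median of vehicle wells and 100% = median of positive control wells; one replicate is shown; the record names a cut of 25% in any replicate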
Target sequence (Q9QR71 whole entry, looked up): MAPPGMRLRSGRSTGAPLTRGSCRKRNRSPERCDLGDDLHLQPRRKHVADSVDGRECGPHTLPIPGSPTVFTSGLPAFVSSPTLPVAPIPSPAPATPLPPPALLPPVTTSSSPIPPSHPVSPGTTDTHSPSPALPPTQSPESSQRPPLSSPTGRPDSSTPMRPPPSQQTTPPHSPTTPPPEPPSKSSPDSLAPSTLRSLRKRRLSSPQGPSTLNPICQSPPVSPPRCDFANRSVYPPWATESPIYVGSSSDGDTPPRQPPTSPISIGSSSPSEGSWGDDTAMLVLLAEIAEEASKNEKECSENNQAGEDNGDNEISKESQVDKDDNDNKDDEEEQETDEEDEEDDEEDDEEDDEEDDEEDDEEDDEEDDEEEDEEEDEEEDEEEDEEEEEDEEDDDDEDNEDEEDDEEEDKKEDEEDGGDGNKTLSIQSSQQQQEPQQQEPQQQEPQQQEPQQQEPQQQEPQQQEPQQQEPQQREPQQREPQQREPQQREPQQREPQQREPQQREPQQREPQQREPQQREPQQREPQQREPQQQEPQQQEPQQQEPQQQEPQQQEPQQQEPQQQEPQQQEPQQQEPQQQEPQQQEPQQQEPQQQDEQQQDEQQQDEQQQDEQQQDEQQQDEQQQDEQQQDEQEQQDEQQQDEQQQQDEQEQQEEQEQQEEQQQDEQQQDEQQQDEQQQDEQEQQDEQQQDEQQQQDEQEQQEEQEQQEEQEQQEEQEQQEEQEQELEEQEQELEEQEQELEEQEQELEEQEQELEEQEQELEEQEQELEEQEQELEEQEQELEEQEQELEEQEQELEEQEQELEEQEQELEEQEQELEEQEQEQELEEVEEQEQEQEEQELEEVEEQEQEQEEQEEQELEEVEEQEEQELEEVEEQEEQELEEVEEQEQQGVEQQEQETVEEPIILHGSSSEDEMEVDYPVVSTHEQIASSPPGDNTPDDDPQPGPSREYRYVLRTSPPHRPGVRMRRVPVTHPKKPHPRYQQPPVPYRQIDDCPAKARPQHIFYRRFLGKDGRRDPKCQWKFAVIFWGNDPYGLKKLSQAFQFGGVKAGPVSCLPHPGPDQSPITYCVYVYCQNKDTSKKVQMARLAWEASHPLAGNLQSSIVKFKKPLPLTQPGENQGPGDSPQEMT
Beta apoptosis: beta cell apoptosis inhibition | protection from apoptosis, % (test concentration not listed) | INS-1E cytokine-induced death, ATP luminescence, 48 h; percent of positive-control rescue, neutral wells zero | 0.8% of 300,000 active;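 active means all replicates at 75% or more, or half of them and the mean; inconclusive means half reach 75% but not the mean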;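 further: 0% = cytokine-treated negative control wells and 100% = positive control rescue; higher means more ATP so stronger rescue from cytokine killing; wells of about 40 µL received 100 nL stock; the first replicate is given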
B2AR ag: human beta-2 adrenergic receptor agonism by FAP. P07550. Am2.2-beta2AR cells, FAP receptor internalization, flow cytometry; reference of the scale not given here. response, % (concentration not given with the values). 0.43% of 340,000 active;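 active means response above a set limit, near 3 SD of response in nonfluorescent compounds, cut at about 42% in these data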;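 further: stock transfer was 100 nL into about 11 µL; a reference agonist was the positive control; negative values mostly stem from fluorescent compounds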
Calb FLC: affects C. albicans growth with fluconazole. C. albicans CaCi-2 (fluconazole-resistant clinical isolate) + fluconazole, Alamar Blue growth, 48 h. 0.57% of 300,000 active. growth inhibition, % (test concentration not listed);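 active means most replicates above 75%; inconclusive means exactly half above 75%; inactive means most below 75%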;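 further: all wells also contain fluconazole at 8 µg/ml as a sub-toxic cotreatment; 0% = median of DMSO wells and 100% = median of geldanamycin control wells; wells of about 8 µL received 7.5 nL stock; the first replicate is given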
A1 inh: inhibitors of the anti-apoptotic protein A1, read as caspase activation. MEF A1-2A-BIM cells, Caspase-Glo 3/7 luminescence, 3 h; percent of clofoctol response, vehicle zero. caspase activation, % (concentration not given with the values). 0.066% of 330,000 active. AID 2462;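 active means over half of replicate activation scores above 10%, or exactly half above 10 with the replicate mean above 10; inconclusive means replicate mean below 10 yet half the replicates above 10; inactive means over half of replicates below 10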;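 further: wells of about 30 µL received 50 nL stock; many hits fall short of the cut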
* = called active by the depositor. These rows are one share of the data (hit frequency here may not be typical).

How did CCN(CC)CCN=Cc1c(O)n(C2CCCCCC2)c(=O)[nH]c1=O do in these assays?
UCH37 inh: 4.7; RanGTP-Imp inh: -2.7; T cruzi inh: -6; LANA-H2A inh: 1.3; Beta apoptosis: -9; B2AR ag: -4; Calb FLC: -3; A1 inh: -0.4

Results for CN(CCCCC(=O)/C=N/O)Cc1ccccc1 (tested in a mixture with another compound) ?
RanGTP-Imp inh: 2.4; T cruzi inh: -1; LANA-H2A inh: 2.4; Beta apoptosis: -2; B2AR ag: 1; Calb FLC: 7; A1 inh: 1.0

Results for CCCCSC1=NN1c1nc(N)nc(C)c1CC ?
UCH37 inh: 1.6; RanGTP-Imp inh: 6.0; T cruzi inh: 9; LANA-H2A inh: 2.0; Beta apoptosis: 1; B2AR ag: -12; Calb FLC: -1; A1 inh: -0.3

What do the screens show for `COc1ccc(C(CNC(=O)Cc2ccc(Cl)c(Cl)c2)N(C)C)cc1` (configuration not stated)?
UCH37 inh: 1.9; RanGTP-Imp inh: 2.5; T cruzi inh: 6; LANA-H2A inh: 11; Beta apoptosis: -3; B2AR ag: 1; Calb FLC: -12; A1 inh: 0.5

How did CN1CCN(CC(=O)Nc2ccc([N+](=O)[O-])cc2C(=O)c2ccccc2)CC1 do in these assays?
UCH37 inh: 4.4; RanGTP-Imp inh: -2.4; T cruzi inh: 27; LANA-H2A inh: 0.8; Beta apoptosis: -4; B2AR ag: -4; Calb FLC: -12; A1 inh: 0.0

Results for CC(=O)O[C@]1(c2ccccc2)CCN(C)[C@H]2CCCC[C@@H]21 ?
UCH37 inh: 1.8; RanGTP-Imp inh: 0.5; T cruzi inh: -12; LANA-H2A inh: 8.1; Beta apoptosis: 1; B2AR ag: 16; Calb FLC: 1; A1 inh: 1.3

What do the screens show for `O=c1[nH]c(=S)n(CCC2=CCCCC2)c(O)c1C=NC1CCN(Cc2ccccc2)CC1`?
UCH37 inh: 4.3; RanGTP-Imp inh: 1.4; T cruzi inh: 51; LANA-H2A inh: 2.3; Beta apoptosis: 0; B2AR ag: 2; Calb FLC: 1; A1 inh: 0.1

What do the screens show for `COc1ccc(C(=O)OC2CC3CCC(C2)[N+]3(C)[O-])cc1OC` (configuration not stated)?
UCH37 inh: 4.0; RanGTP-Imp inh: 2.3; T cruzi inh: -10; LANA-H2A inh: 3.3; Beta apoptosis: -5; B2AR ag: -9; Calb FLC: -7; A1 inh: 0.4

What do the screens show for `Cc1ccccc1-n1c(/C=C/c2ccccn2)nc2ccccc2c1=O`?
UCH37 inh: 3.5; RanGTP-Imp inh: 0.2; T cruzi inh: 32; LANA-H2A inh: 3.1; Beta apoptosis: -2; B2AR ag: 7; Calb FLC: 1; A1 inh: 0.4

What do the screens show for `COc1cccc(C2(O)CCSCC2CN(C)C)c1` (configuration not stated)?
UCH37 inh: 2.2; RanGTP-Imp inh: -1.9; T cruzi inh: -8; LANA-H2A inh: -2.4; Beta apoptosis: -5; B2AR ag: -2; Calb FLC: -4; A1 inh: 0.5

What do the screens show for `O=C(c1cccc(Cl)c1)C1CCCN(Cc2ccon2)C1` (configuration not stated)?
UCH37 inh: 4.4; RanGTP-Imp inh: -2.5; T cruzi inh: -12; LANA-H2A inh: 0.6; Beta apoptosis: 0; B2AR ag: 2; Calb FLC: -5; A1 inh: 0.2

What do the screens show for `c1ccc2c(CCNCc3ccc4c(c3)OCO4)c[nH]c2c1`?
UCH37 inh: 3.9; RanGTP-Imp inh: -6.2; T cruzi inh: 22; LANA-H2A inh: 4.1; Beta apoptosis: -3; B2AR ag: -13; Calb FLC: -4; A1 inh: -0.2

Results for CCOP(=O)(OCC)C1(O)C(=O)Nc2ccc(Br)cc21 (configuration not stated) ?
UCH37 inh: 3.8; RanGTP-Imp inh: -0.2; T cruzi inh: -13; LANA-H2A inh: -0.1; B2AR ag: 6; Calb FLC: -31; A1 inh: 0.0

What do the screens show for `CCN(CCNc1ccc([N+](=O)[O-])c2cccnc12)S(=O)(=O)c1ccccc1`?
UCH37 inh: 1.8; RanGTP-Imp inh: -4.2; T cruzi inh: -16; Beta apoptosis: -7; B2AR ag: 6; Calb FLC: 24; A1 inh: 0.2

How did O=C1CN=C(c2ccccc2Cl)c2cc(Br)ccc2N1 do in these assays?
UCH37 inh: 5.2; RanGTP-Imp inh: 8.3; T cruzi inh: 2; LANA-H2A inh: -0.6; B2AR ag: 4; Calb FLC: -5; A1 inh: 0.5

Results for CCOP(=O)(OCC)C(c1ccccc1)N(C)C=O (configuration not stated) ?
UCH37 inh: 3.3; RanGTP-Imp inh: -2.3; T cruzi inh: -15; LANA-H2A inh: 2.4; Beta apoptosis: 2; B2AR ag: 7; Calb FLC: 33; A1 inh: -0.2

Results for CC[C@H]1CN(C)CCc2c([nH]c3ccccc23)C(=O)C[C@@H]1/C(=C\OC)C(=O)OC ?
UCH37 inh: 1.6; RanGTP-Imp inh: 0.4; T cruzi inh: 29; LANA-H2A inh: 3.5; Beta apoptosis: -3; B2AR ag: 1; Calb FLC: -12; A1 inh: 0.0

How did CCCCn1c(O)c(C(C)=NCCN2CCOCC2)c(=O)[nH]c1=O do in these assays?
UCH37 inh: 1.0; RanGTP-Imp inh: 5.3; T cruzi inh: -21; LANA-H2A inh: 0.7; Beta apoptosis: -5; B2AR ag: -3; Calb FLC: 1; A1 inh: -0.6

What do the screens show for `O=C1NC(=O)C(=Cc2ccc(-c3ccc(Cl)cc3)o2)C(=O)N1`?
UCH37 inh: 1.2; RanGTP-Imp inh: -1.3; T cruzi inh: -14; LANA-H2A inh: 2.4; Beta apoptosis: 4; B2AR ag: 60*; Calb FLC: -6; A1 inh: 1.4

What do the screens show for `Cc1cc(NC(=O)CCl)on1`?
UCH37 inh: 0.2; RanGTP-Imp inh: -5.0; T cruzi inh: 10; LANA-H2A inh: 0.2; Beta apoptosis: 0; B2AR ag: 6; Calb FLC: -16; A1 inh: 0.0

Results for C[N+](C)(C)CC(=O)Nc1ccc(Cl)cc1C(=O)c1ccccc1 ?
UCH37 inh: 5.0; T cruzi inh: -5; LANA-H2A inh: -5.9; Beta apoptosis: 1; B2AR ag: -1; Calb FLC: 8; A1 inh: 0.8

How did COC(=O)C1=C(c2cccc(OCc3ccccc3)c2)C[C@@H]2CC[C@H]1N2C(=O)NCc1ccccc1C(F)(F)F do in these assays?
UCH37 inh: 4.5; LANA-H2A inh: -5.5; Beta apoptosis: 20; B2AR ag: -5; A1 inh: 0.8

How did CCC(C)c1ccc(N2C(=O)NC(=O)/C(=C/c3cccn3CCOc3ccc(C)cc3)C2=O)cc1 (configuration not stated) do in these assays?
UCH37 inh: -34; T cruzi inh: -1; LANA-H2A inh: -9.9; Beta apoptosis: 13; B2AR ag: -24; Calb FLC: -3; A1 inh: 0.4

Results for CC(=O)Nc1ccc(OC(=O)N(C)c2ccc(C)cc2)cc1 ?
UCH37 inh: 6.1; RanGTP-Imp inh: 4.8; T cruzi inh: inconclusive; LANA-H2A inh: -0.1; Beta apoptosis: -3; B2AR ag: 2; Calb FLC: -4; A1 inh: 0.2

How did CC(O)(CS(=O)(=O)c1cccc(C(F)(F)F)c1)C(=O)Nc1cccc(C(F)(F)F)c1 (configuration not stated) do in these assays?
UCH37 inh: -0.4; RanGTP-Imp inh: 4.2; T cruzi inh: 5; LANA-H2A inh: -4.3; Beta apoptosis: 0; B2AR ag: 0; Calb FLC: 19; A1 inh: 0.7

What do the screens show for `COc1ccccc1OCCCn1cc(C=O)c2ccccc21`?
UCH37 inh: 0.3; RanGTP-Imp inh: 0.6; T cruzi inh: -1; LANA-H2A inh: 5.5; Beta apoptosis: 2; B2AR ag: 7; Calb FLC: 3; A1 inh: -3.6

How did COc1ccccc1N1CCN(Cc2ccc(Cl)cc2Cl)CC1 do in these assays?
UCH37 inh: 2.7; RanGTP-Imp inh: 0.3; T cruzi inh: 10; LANA-H2A inh: -0.9; Beta apoptosis: 8; B2AR ag: 10; Calb FLC: 0; A1 inh: 0.3

Results for CN1CCN(C(=O)COc2ccc(Oc3ccccc3)cc2)CC1 ?
UCH37 inh: 5.8; RanGTP-Imp inh: 2.4; T cruzi inh: inconclusive; LANA-H2A inh: 5.2; Beta apoptosis: -1; B2AR ag: -10; Calb FLC: 6; A1 inh: -0.9

Results for O=C1C2CCN(CC2)C1Cc1ccc(OCc2ccccc2)cc1 (configuration not stated) ?
UCH37 inh: 6.6; RanGTP-Imp inh: 0.5; T cruzi inh: 8; LANA-H2A inh: -355; Beta apoptosis: 0; B2AR ag: 4; Calb FLC: 109*; A1 inh: -0.3

Results for Cc1ccc(OCC(=O)NCCN2CCN(C(=O)COc3ccc(C)cc3)CC2)cc1 ?
UCH37 inh: 4.7; RanGTP-Imp inh: 1.4; T cruzi inh: 25; LANA-H2A inh: 0.7; Beta apoptosis: 2; B2AR ag: 1; Calb FLC: 0; A1 inh: -0.3

What do the screens show for `CCCCn1c(O)c(/C=C/C=Nc2ccccc2)c(=O)[nH]c1=O`?
UCH37 inh: 16; RanGTP-Imp inh: 41*; T cruzi inh: -3; LANA-H2A inh: -12; Beta apoptosis: -3; B2AR ag: -17; Calb FLC: 3; A1 inh: 1.7

What do the screens show for `CC(=O)Nc1ccccc1C(=O)OCC(=O)Nc1ncccn1`?
UCH37 inh: 1.5; RanGTP-Imp inh: -2.2; T cruzi inh: -1; LANA-H2A inh: 4.6; B2AR ag: 1; Calb FLC: -3; A1 inh: 0.2

How did Fc1ccc(CNCCc2ccccc2)cc1 do in these assays?
UCH37 inh: 4.8; RanGTP-Imp inh: -6.2; T cruzi inh: 25; LANA-H2A inh: -1.0; Beta apoptosis: -5; B2AR ag: 5; Calb FLC: -6; A1 inh: -0.4

Results for COC(=O)C1=C(c2cccc(OCc3ccccc3)c2)C[C@@H]2CC[C@H]1N2C(=O)NCc1ccc(OC)cc1 ?
UCH37 inh: 1.1; LANA-H2A inh: -1.0; Beta apoptosis: -4; B2AR ag: -4; A1 inh: 1.6

How did COC(=O)C1=C(c2ccccc2)C[C@@H]2CC[C@H]1N2C(=O)N1CCCCC1 do in these assays?
UCH37 inh: -239; RanGTP-Imp inh: -2.8; T cruzi inh: -1; LANA-H2A inh: 6.7; Beta apoptosis: -4; B2AR ag: 0; Calb FLC: -19; A1 inh: 1.2

What do the screens show for `COc1cc(OC)c(OC)cc1CNC(C)C(O)c1ccccc1` (configuration not stated)?
UCH37 inh: 1.3; RanGTP-Imp inh: -2.8; T cruzi inh: 1; LANA-H2A inh: 1.5; Beta apoptosis: -3; B2AR ag: 6; Calb FLC: 9; A1 inh: 0.1

How did CSc1nnc([C@@H](N)Cc2c[nH]c3ccccc23)o1 do in these assays?
RanGTP-Imp inh: 1.2; T cruzi inh: -8; LANA-H2A inh: 1.6; Beta apoptosis: -2; B2AR ag: 4; Calb FLC: 11; A1 inh: 2.0

What do the screens show for `CN1CCN(c2ccc(N)c(N3CCN(C)CC3)c2)CC1`?
UCH37 inh: 1.4; RanGTP-Imp inh: -0.4; T cruzi inh: 5; LANA-H2A inh: -0.9; Beta apoptosis: -1; B2AR ag: 12; Calb FLC: -5; A1 inh: -0.1

How did Cc1cc(OCC(=O)NC2CCS(=O)(=O)C2)c2c3c(c(=O)oc2c1)CCC3 (configuration not stated) do in these assays?
UCH37 inh: -131; RanGTP-Imp inh: -2.0; T cruzi inh: -1; LANA-H2A inh: -8.0; B2AR ag: 11; Calb FLC: 3; A1 inh: 0.1

How did COc1ccc(OCC(=O)N2CCN(C(C)C)CC2)cc1 do in these assays?
UCH37 inh: -0.5; RanGTP-Imp inh: -0.6; T cruzi inh: -17; LANA-H2A inh: 2.4; Beta apoptosis: 7; B2AR ag: 12; Calb FLC: 41; A1 inh: 0.2
